Compound activity: PubChem, several laboratories
HNF4A DNA FP = change in binding of human HNF4 alpha to DNA | P41235 | HNF4a-FITC DNA binding, fluorescence polarization, 1 h | activity change, % at 10 µM | actives 0.3% (n = 360,000) | AID 1224865; in the data active = activity change above about 30%, passing the limit was not always enough;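 also: controls were the assay level and a saturating level of protein; the project sought stronger binding though the title names inhibitors; some compounds called inactive have numbers as strong as hits; positive values seem to mean higher polarization but the record does not say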
Bfl-1 A1 inh = inhibitors of the anti-apoptotic protein A1, read as caspase activation. caspase activation, % (concentration not given with the values). MEF A1-2A-BIM cells, Caspase-Glo 3/7 luminescence, 3 h; percent of clofoctol response, vehicle zero. actives 0.066% (n = 330,000);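 active = over half of replicate activation scores above 10%, or exactly half above 10 with the replicate mean above 10; inconclusive = replicate mean below 10 yet half the replicates above 10; inactive = over half of replicates below 10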;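 also: wells of about 30 µL received 50 nL stock; many hits fall short of the cut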
Vif TR-FRET = inhibitors of Vif binding to APOBEC3G peptide, primary screen, biochemical, TR-FRET, GST-Vif 1-94, biotin-A3G peptide, dose response retest (AID 1117319). TR-FRET GST-Vif / biotin-A3G peptide binding; higher % means a stronger effect; test concentration not given here; strong numbers were not always called active. inhibition, %; hits with a dose series show IC50 in µM. actives 0.57% (n = 260,000);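 active = above the screen mean plus three standard deviations and confirmed in dose response; inconclusive = results disagree or hit not tested in dose response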;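 also: Vif residues 1-94 fused to GST binding biotinylated APOBEC3G peptide 110-148; 0% = full assay without inhibitor and 100% = GST in place of GST-Vif; retest series ran down from 100 µM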
UCH37 inh = inhibitors of human deubiquitinating enzyme UCH37; inhibition, % (concentration not given with the values); actives 0.33% (n = 330,000); Q9Y5K5; purified proteasome/UCH37, Ub-AMC cleavage fluorescence;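 active = mean of two replicates above 20%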;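 also: 0% = compound-free wells with enzyme and 100% = wells lacking proteasome; stock transfer was 100 nL into about 20 µL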
Target sequence (Q9Y5K5 whole entry, looked up): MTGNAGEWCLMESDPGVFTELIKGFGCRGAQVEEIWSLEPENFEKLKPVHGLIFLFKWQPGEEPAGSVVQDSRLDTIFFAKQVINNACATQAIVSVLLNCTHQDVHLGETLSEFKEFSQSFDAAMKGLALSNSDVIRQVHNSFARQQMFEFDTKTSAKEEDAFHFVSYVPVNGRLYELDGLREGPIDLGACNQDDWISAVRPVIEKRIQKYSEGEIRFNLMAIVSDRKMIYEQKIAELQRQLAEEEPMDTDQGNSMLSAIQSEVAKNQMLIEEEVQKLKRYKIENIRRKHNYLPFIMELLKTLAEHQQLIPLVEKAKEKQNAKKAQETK
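Signal – fluorescence, ex 355 nm, em 460 nm · System – Proteasome-bound UCH37 · Input – 0.15 nM proteasome as dispensed · Timing – 30 min preincubation with enzyme, 25 min cleavage at room temperature · Read-out basis – percent inhibition of cleavage signal versus uninhibited and no-proteasome wells · Medium – Tris-HCl pH 7.4 with ATP-MgCl2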
Beta2AR agonist = agonists of human beta-2 adrenergic receptor inducing internalization | Am2.2-beta2AR cells, FAP receptor internalization, flow cytometry; reference of the scale not given here | P07550 | response, % (test concentration not listed) | actives 0.43% (n = 340,000);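 active = response above a set limit, near 3 SD of response in nonfluorescent compounds, cut at about 42% in these data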;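 also: stock transfer was 100 nL into about 11 µL; a reference agonist was the positive control; negative values mostly stem from fluorescent compounds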
Target sequence (P07550 whole entry, looked up): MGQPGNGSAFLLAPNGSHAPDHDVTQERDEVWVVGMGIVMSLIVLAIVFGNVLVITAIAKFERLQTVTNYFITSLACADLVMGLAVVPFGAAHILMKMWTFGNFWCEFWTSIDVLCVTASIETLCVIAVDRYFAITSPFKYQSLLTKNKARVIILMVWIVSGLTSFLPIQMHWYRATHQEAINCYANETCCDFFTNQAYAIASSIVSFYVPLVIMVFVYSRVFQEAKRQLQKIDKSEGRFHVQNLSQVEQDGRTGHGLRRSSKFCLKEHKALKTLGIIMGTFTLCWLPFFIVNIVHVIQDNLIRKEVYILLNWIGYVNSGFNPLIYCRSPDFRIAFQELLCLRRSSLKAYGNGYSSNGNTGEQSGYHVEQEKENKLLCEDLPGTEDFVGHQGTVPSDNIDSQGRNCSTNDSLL
LANA-H2B inh = blocks KSHV LANA binding to histone H2A/H2B. actives 0.6% (n = 320,000). Q9QR71. cell-free LANA-H2A/H2B peptide, fluorescence polarization. inhibition, % (test concentration not listed); in the data active = inhibition mostly above about 10%, no sharp cut-off; inactive = mostly below about 6.7%;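 also: stock transfer was 7.5 nL into about 10 µL; 0% = median of vehicle wells and 100% = median of positive control wells; one replicate is shown; the record names a cut of 25% in any replicate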
E coli growth = blocks Escherichia coli growth; OD600, 23 h; stronger effect = lower value; OD600 absorbance (no concentration beside the values); actives 0.21% (n = 330,000); AID 1053175;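 active = OD600 absorbance below the run mean of sample wells minus 3.6 SD, in any replicate, cut at about 0.56 in these data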;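 also: stock transfer was 300 nL into about 60 µL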
An asterisk follows results filed as active; ? = inconclusive; . = no result given. Compounds as they come; 2.1% or so of the library scored in one or more.

SMILES | HNF4A DNA FP | Bfl-1 A1 inh | Vif TR-FRET | UCH37 inh | Beta2AR agonist | LANA-H2B inh | E coli growth
Cn1c(-c2ccccc2)c(C=O)c2ccccc21 | -3.5 | -0.3 | 7.1% | 0.8 | -8.3 | -0.9 | 0.631
O=C(CO/N=C/c1ccccc1OC(F)F)NCc1cccs1 | 1.7 | -0.5 | . | . | -4.1 | 0.3 | .
COc1cccc(CC2(CO)CCCN(Cc3ccc(-c4ccco4)cc3)C2)c1 (stereo unspecified) | 11.8 | -0.4 | . | -10.4 | 7.8 | 6.9 | 0.642
Cn1cccc1C(=O)OCC(=O)NC1CCS(=O)(=O)C1 (stereo unspecified) | -0.7 | 1.1 | -3.5% | 3.9 | 0.5 | -3.2 | 0.65
CCOc1ccccc1OCCCC(=O)NNC(=O)c1nn(C)c(=O)c2ccccc12 | 3.7 | 1.4 | -7.2% | 6.2 | -8.0 | -1.4 | 0.71
COc1ccccc1NC(=O)c1ccc2nc(N3C(=O)CCC3=O)sc2c1 | 1.4 | -0.4 | -1.3% | 2.7 | -1.4 | -1.4 | 0.674
CCCc1nnc(SCC(=O)N2CCCC2)n1Cc1ccco1 | 3.8 | 0.7 | -2.5% | 4.4 | -8.0 | 0.8 | 0.714
Cn1c(O)c(C=NCCCCCC(=O)O)c(=O)n(C)c1=O | -1.5 | . | . | -0.2 | 0.4 | . | 0.65
Cn1cc(Br)c(C(=O)NNC(=O)c2cccc(Br)c2)n1 | -2.3 | 0.9 | 8.6% | 5.6 | -3.7 | 3.4 | 0.705
Cc1cc(N=Cc2cc(Cl)ccc2O)no1 | 1.6 | 0.8 | 3.0% | 2.1 | 1.9 | -0.5 | 0.627
Cc1ccnc(N/C=C(/NC(=O)c2ccccc2)C(=O)N/N=C\c2ccc(Cl)cc2)n1 | -4.5 | 0.8 | . | . | -1.0 | -2.3 | .
N/C(=N\OC(=O)c1ccc(Cl)cc1Cl)c1ccncc1 | 2.0 | -4.6 | -12.9% | 3.1 | 15.8 | -6.1 | 0.582
O=C1C(=O)N(Cc2cccnc2)C(c2cccc([N+](=O)[O-])c2)/C1=C(/O)c1ccc2c(c1)OCO2 (stereo unspecified) | 0.1 | -0.4 | . | 15.3 | 2.7 | -2.5 | 0.711
CCOC(=O)c1c(C)c(C(=O)Nc2ccccc2)c(C)n1CC | -8.3 | 0.4 | 25.4% | 0.8 | -0.4 | 1.7 | 0.661
C/C(=N\NC(=S)Nc1ccccc1C)c1cc2ccccc2o1 | 1.5 | -1.1 | 14.9% | . | 3.2 | 2.2 | .
O=C(c1ccccc1)c1cccc(NC(=O)c2ccc(Br)o2)c1 | -6.3 | -4.7 | -5.2% | 5.0 | -9.7 | -1.2 | 0.712
Cc1ccc(NC(=O)/C(C#N)=C/c2ccc(Sc3nc(C)cc(C)n3)o2)cc1 | 31.4 | -0.6 | -1.4% | 3.9 | -6.5 | 2.5 | 0.759
NC(=O)CN1CCOCCOCCN(CC(N)=O)CCOCC1 | -0.2 | 0.3 | -1.2% | -1.9 | 4.1 | 0.8 | 0.692
CN(CCNC(=O)CCCOc1cc(=O)n(C)c2ccccc12)Cc1ccccc1 | 3.3 | 0.5 | 2.4% | -0.7 | -3.0 | -3.1 | 0.693
CC(NC(=O)CN(C)Cc1cccc(Cl)c1)c1ccccc1 (stereo unspecified) | 5.2 | 1.2 | . | 5.2 | -3.7 | -0.3 | 0.684
COc1cc(/C=C/C(=O)OCC(=O)Nc2ccc([N+](=O)[O-])cc2)ccc1O | -5.9 | -0.2 | -1.3% | 2.8 | 19.8 | 0.9 | 0.662
CCOc1cc(-c2nc(-c3ccc(OC)cc3)no2)cc(OCC)c1OCC | 1.6 | 1.2 | -0.3% | -0.1 | 0.1 | 1.2 | 0.707
O=C(NCCCCl)C1CC(=O)N(CCc2ccc(F)cc2)C1 (stereo unspecified) | -2.9 | 1.1 | . | -0.1 | -11.7 | -1.1 | 0.675
CCn1ccnc1CN(C)C(=O)CC1C(=O)NCCN1Cc1c(F)cccc1Cl (stereo unspecified) | -1.7 | 1.0 | . | 0.4 | -2.3 | 4.0 | 0.66
O=C(COC(=O)Cc1ccccc1F)Nc1cc(S(=O)(=O)N2CCOCC2)ccc1N1CCCC1 | 1.0 | 0.3 | 14.1% | 1.5 | 16.1 | -1.6 | 0.699
(list continues)
SMILES | HNF4A DNA FP | Bfl-1 A1 inh | Vif TR-FRET | UCH37 inh | Beta2AR agonist | LANA-H2B inh | E coli growth
O=C(COC(=O)CCCc1nc2ccccc2s1)NC(=O)NCc1ccco1 | 1.1 | 0.0 | 21.9% | 1.8 | 5.7 | -2.4 | 0.701
Cc1cccc(N2CC(=O)N(c3cccc(C)c3)CC2=O)c1 | 1.3 | 0.1 | 0.9% | -0.9 | 2.5 | -1.3 | 0.663
c1ccc(-c2cc(N3CCCCC3)c3ccccc3n2)cc1 | 6.4 | -0.6 | . | -1.6 | 1.1 | 5.0 | 0.707
CCC(CC)C1C(C#N)=C(N)Oc2cc(C)oc(=O)c21 (stereo unspecified) | 0.7 | 0.1 | -1.0% | 1.7 | 11.6 | -0.7 | 0.658
Cc1n[nH]c(=O)c2c(NC(=O)CSc3nc4ccccc4c(=O)n3CCCO)oc(C)c12 | -4.3 | 0.0 | . | . | -4.0 | -0.9 | .
COc1cc2c(c(OC)c1CC=C(C)C)C[C@H](c1ccc(O)cc1O)CO2 | 1.7 | -0.4 | . | 0.6 | 4.9 | 1.3 | 0.711
CCC1CCCCN1Cc1nc2c(c(=O)n(C)c(=O)n2C)n1Cc1ccccc1 (stereo unspecified) | -0.5 | . | -3.5% | 1.9 | -15.8 | 0.7 | 0.728
CC1CCCCC1NC(=O)c1cn(C)c2ccc(S(=O)(=O)N3CCOCC3)cc2c1=O (stereo unspecified) | -0.6 | -0.5 | . | 5.7 | -1.5 | 0.4 | 0.691
COc1ccc(S(=O)(=O)Oc2ccc3c(c2)O/C(=C\c2cccnc2)C3=O)cc1 | 0.7 | -0.2 | -7.5% | 5.1 | 10.1 | -1.9 | 0.673
O=C(CSc1nnc(-c2cccnc2)o1)OC1CCCCC1 | -2.4 | 0.3 | 25.1% | -1.6 | 0.6 | -0.9 | 0.759
CCc1nn(CC(=O)NCCCN2CCN(C)CC2)c(=O)c2cc3sc(C)cc3n12 | -1.9 | -0.6 | 8.8% | 0.0 | -13.1 | 6.3 | 0.644
Cc1coc2c1c(C)cc1oc(=O)c(CC(=O)NCCCN3CCCC3=O)c(C)c12 | -1.5 | 0.4 | . | -213.6 | -2.7 | 1.4 | 0.753
COCCn1c(SCc2ccc(C(=O)OC)o2)nnc1-c1c[nH]c2ccccc12 | -2.1 | -0.2 | 16.5% | 1.6 | -2.7 | 3.0 | 0.695
Cc1ccc(Oc2cc(N3CCOCC3)nc(-c3ccccc3)n2)cc1 | -1.5 | 1.2 | -0.1% | -2.1 | -2.8 | -1.1 | 0.752
COc1ccc(CNc2cccc(C)n2)c(O)c1 | 3.1 | 1.2 | . | 0.4 | 7.0 | 1.0 | 0.697
C#Cc1ccc([C@@H]2C=C(C(=O)NCc3ccccc3)O[C@H](OCCCCO)C2)cc1 | -9.7 | 0.4 | . | 1.2 | 0.4 | -2.5 | .
CN(C)CCNC(=S)Nc1ccc(F)c(F)c1F | 3.7 | -0.4 | . | 5.4 | -15.3 | -3.3 | 0.723
N#CC1=C(N)C(C#N)(C#N)C(c2cccnc2)C2CC(c3ccccc3)CC=C12 (stereo unspecified) | -16.2 | 0.3 | 5.4% | -12.1 | 37.0 | 7.0 | 0.735
O=C(Nc1cccc(-n2cccn2)c1)C1CCCN(Cc2cc3ccccc3[nH]2)C1 (stereo unspecified) | 3.9 | . | . | 3.1 | 10.8 | . | 0.671
Cc1cc2ccccn2c1C(=O)c1nc(NCc2ccccc2)ncc1Cl | 0.7 | 0.0 | -3.3% | 7.9 | 6.8 | -4.1 | 0.683
Cc1nc(NC(=O)c2csc3ccccc23)sc1C | -0.3 | -4.0 | 11.2% | -1.8 | 1.6 | -2.6 | 0.681
COC(=O)C1=C(C)Nc2[nH]c(=S)[nH]c(=O)c2C1c1ccc(O)cc1 (stereo unspecified) | -1.2 | 1.6 | -3.7% | 0.2 | -2.4 | -5.2 | 0.724
COC(=O)c1c(NC(=O)C2COc3ccccc3O2)sc2c1CCN(Cc1ccccc1)C2 (stereo unspecified) | 0.5 | 0.2 | . | -7.4 | 9.2 | -1.5 | 0.737
O=C(NCCCn1ccnc1)c1cc(-c2ccncc2)nc2ccccc12 | -1.4 | 0.9 | -5.3% | 4.4 | -13.7 | -4.4 | 0.69
COc1ccccc1N(C(=O)c1ccncc1)c1nc(-c2ccc([N+](=O)[O-])cc2)cs1 | -1.9 | -0.9 | . | 4.4 | -2.4 | -1.2 | 0.726
Remaining list, next part:
SMILES | HNF4A DNA FP | Bfl-1 A1 inh | Vif TR-FRET | UCH37 inh | Beta2AR agonist | LANA-H2B inh | E coli growth
C=CCn1c(C)cc(C(=O)COC(=O)/C=C/c2c(C)nn(C3CCS(=O)(=O)C3)c2Cl)c1C (stereo unspecified) | 2.6 | 1.0 | -4.0% | 0.2 | 1.8 | -5.5 | 0.712
Cc1cccc(OP(=O)(Nc2c(C)n(C)n(-c3ccccc3)c2=O)Oc2cccc(C)c2)c1 | -1.0 | 0.8 | 1.4% | 1.2 | -21.7 | -2.0 | 0.739
O=C(NNC(=O)c1ccncc1)Nc1ccc(N=Nc2ccccc2)cc1 | 1.7 | . | -0.8% | 8.8 | 9.7 | . | 0.634
O=C(NCCOc1nc(N2CCOCC2)nc(N2CCOCC2)n1)Nc1ccccc1 | 0.4 | -0.5 | -0.1% | 3.4 | 4.8 | 0.7 | 0.718
COc1ccc(Cc2nc3ccc(C(=O)N4CCN(C)C(C)C4)cc3o2)cc1OC (stereo unspecified) | -3.0 | -0.4 | . | 0.5 | 8.1 | 0.4 | 0.623
Cc1ccc(N2C(=O)c3sc4nnc(C)c(=O)n4c3C2=O)cc1 | 3.1 | -8.6 | 12.4% | 4.9 | -4.3 | 1.3 | 0.664
CCCCNC(=O)CN1C(=O)NC(Cc2ccccc2)(Cc2ccccc2)C1=O | -1.8 | -0.4 | 22.8% | 0.3 | 19.5 | -5.5 | 0.674
CC(=O)c1ccc(S(=O)(=O)N(C)CCCC(=O)N(C)Cc2c(F)cccc2Cl)cc1 | -3.1 | 0.3 | . | 1.6 | -2.2 | 57.6* | 0.685
S=C(NCCCN1CCOCC1)Nc1ccc(-c2nc3ccccc3[nH]2)cc1 | 0.0 | -1.2 | -3.3% | 3.9 | 3.7 | 0.5 | 0.698
CC1(C)CC2CC(C)(CN2C(=S)Nc2ccccc2F)C1 (stereo unspecified) | 5.7 | 0.6 | 6.8% | 1.9 | 7.5 | 0.1 | 0.707
Cc1c(C(=O)NC2CC2)oc2ccc(S(=O)(=O)N3CCCCCC3)cc12 | 2.0 | 0.9 | ? | 4.8 | -10.7 | -1.8 | 0.681
CC(C)OC(=O)c1c(NC(=O)c2cnn3c2NC(c2ccccc2)CC3C(F)F)sc2c1CCCC2 (stereo unspecified) | . | -0.3 | -5.2% | . | . | 2.0 | .
CCCNC(=O)CN(c1cccc(F)c1)S(C)(=O)=O | -1.2 | -0.4 | 8.8% | 2.7 | -1.6 | 0.7 | 0.618

Arranged by value in HNF4A DNA FP (rising): three from the list above
| SMILES | HNF4A DNA FP |
| --- | --- |
| Cc1cccc(OP(=O)(Nc2c(C)n(C)n(-c3ccccc3)c2=O)Oc2cccc(C)c2)c1 | -1.0 |
| CCC1CCCCN1Cc1nc2c(c(=O)n(C)c(=O)n2C)n1Cc1ccccc1 (stereo unspecified) | -0.5 |
| CC(NC(=O)CN(C)Cc1cccc(Cl)c1)c1ccccc1 (stereo unspecified) | 5.2 |
